GIV-Gai inh = blocks GIV peptide binding to rat Galpha-i3 | P08753 | Galpha-i3/FITC-GIV peptide fluorescence polarization, 90 min; stronger effect = lower value; scaled: aluminum fluoride 0%, vehicle 100% | percent of control (FP), % (concentration not given with the values) | 210,000 tested, 0.42% active;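 active means replicate mean at 85% of control or lower, very high polarization wells dropped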;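 further: wells of about 15 µL received 100 nL stock; the first replicate is given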
Target sequence (P08753 whole entry, looked up): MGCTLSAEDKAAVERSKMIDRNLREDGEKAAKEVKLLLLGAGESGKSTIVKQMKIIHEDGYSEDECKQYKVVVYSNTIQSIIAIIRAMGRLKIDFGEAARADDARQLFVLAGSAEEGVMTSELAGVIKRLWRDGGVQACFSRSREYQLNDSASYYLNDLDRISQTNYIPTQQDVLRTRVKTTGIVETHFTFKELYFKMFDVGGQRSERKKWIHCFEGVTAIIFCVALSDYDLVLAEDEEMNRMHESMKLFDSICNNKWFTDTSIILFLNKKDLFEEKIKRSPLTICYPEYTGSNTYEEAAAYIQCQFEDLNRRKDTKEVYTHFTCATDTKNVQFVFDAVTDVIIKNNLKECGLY
Sa growth inh = S. aureus growth inhibition | 170,000 tested, 0.53% active | relative growth, % (test concentration not listed) | S. aureus RN4220 growth, OD600, 20 h, 42 °C; stronger effect = lower value | AID 720641;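 active means growth at 42 °C up to 50% and 20 or more points under that at 30 °C, or under 10% at both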;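 further: 300 nL library stock went into each well; scaled to the means of positive and negative controls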
HCMV UL50-53 inh = disrupts HCMV UL50-UL53 complex binding | HTRF UL50-UL53 interaction, normalized percent inhibition | inhibition, % (concentration not given with the values) | 190,000 tested, 0.15% active | AID 1918969;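 active means both replicates at 50% or more, plus weaker picks with an unusually low signal ratio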;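 further: stock transfer was 100 nL into about 20 µL; 0% = negative control wells and 100% = wells with untagged competitor protein; inactives centre near -12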
Sa growth inh second temp = also measured in Sa growth inh; calls as there; relative growth, %; measured here: growth at 30 °C;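 optical density after 20 h as mean of two plates; 100% = untreated growth and lower means inhibition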
Active calls of the source: *; . = not tested or not shown; & = joins results of further samples. Compounds were not picked by outcome; overall some 0.83% were active at least once.

1) Cc1cn2c(=O)c(S(=O)(=O)Nc3ccc(F)cc3F)c(C)nc2s1
2) O=C(O)CCSc1ccccc1Cl
3) COc1ccc(-c2c(C)c3ccc(O)c(CN4CCC(C)CC4)c3oc2=O)cc1OC
4) CC(C)CC(C(=O)N1CCCc2ccccc21)N1C(=O)c2ccccc2C1=O (stereo not given)
5) CCOC(=O)c1ccc(NC(=O)Nc2cc3c(cc2N2CCCC2)n(C)c(=O)n3C)cc1
6) N#CCS(=O)(=O)Cc1ccc(C(=O)O)cc1
7) CCc1ccc(C(=O)CSc2nnc3[nH]c(=O)c(C(C)(C)C)nn23)cc1
8) COCCNC(=O)Cn1c(=O)c2cccn2c2ccc(F)cc21

compound no.	1	2	3	4	5	6	7	8
GIV-Gai inh	101	.	102	.	103	.	101	97
Sa growth inh	119	109	91	104	92	98	91	103
Sa growth inh second temp	82	98	91	99	88	86	45	86
HCMV UL50-53 inh	.	0	.	-22	0	-2	-16	-9

One compound at a time (already shown). Order of screens: GIV-Gai inh | Sa growth inh | Sa growth inh second temp | HCMV UL50-53 inh
COCCNC(=O)Cn1c(=O)c2cccn2c2ccc(F)cc21 as listed: 97 | 103 | 86 | -9
CCc1ccc(C(=O)CSc2nnc3[nH]c(=O)c(C(C)(C)C)nn23)cc1 as listed: 101 | 91 | 45 | -16

(more compounds)
9) Cn1cccc1P(=Nc1ccccc1)(N1CCOCC1)N1CCOCC1
10) Cc1ccc(NC(=O)CCS(=O)(=O)c2cccc3nsnc23)c(C)c1
11) Cc1cccc(C(=O)NCC(=O)OCc2nc(N)nc(Nc3ccccc3C)n2)c1
12) COc1cc2c(cc1OC)C(C)N(C(=O)c1ccc(N)cc1)CC2 (stereo not given)
13) CCc1cc2c3c([nH]c2cc1S(=O)(=O)N1CCN(c2ccccn2)CC1)CC(C)(C)CC3=O
14) CCOc1ccc(CNC(=O)CCSCc2ccccc2Cl)cc1OC
15) COC(=O)c1c(-c2ccc(Cl)cc2)noc1N1CCN(c2ccc(C(C)=O)cc2)CC1
16) CC(C)(C)N=C(NS(=O)(=O)c1ccc(Br)cc1)c1ccccc1

compound no.	9	10	11	12	13	14	15	16
GIV-Gai inh	.	104	.	102	106	102	107	101
Sa growth inh	79	89	93	100	.	115	118	109
Sa growth inh second temp	86	91	84	94	.	83	78	92
HCMV UL50-53 inh	-7	-108	-18	2	3	-12	.	.

The closing four entries of the section before lead into the next.
13) CCc1cc2c3c([nH]c2cc1S(=O)(=O)N1CCN(c2ccccn2)CC1)CC(C)(C)CC3=O
14) CCOc1ccc(CNC(=O)CCSCc2ccccc2Cl)cc1OC
15) COC(=O)c1c(-c2ccc(Cl)cc2)noc1N1CCN(c2ccc(C(C)=O)cc2)CC1
16) CC(C)(C)N=C(NS(=O)(=O)c1ccc(Br)cc1)c1ccccc1
17) CC(C)Oc1ccc(CNC(=O)CNC(=O)C2(C)Cn3c(cc4ccccc43)C(=O)N2C)cc1 (stereo not given)
18) NS(=O)(=O)c1ccc(N=CC2=C(O)c3ccccc3C2=O)cc1
19) Cc1ccc(S(=O)(=O)Nc2ccc3oc(=O)sc3c2)cc1
20) COc1ccc(C(=O)Nc2nc3nc(C)c(Cc4ccccc4)c(=O)n3[nH]2)cc1OC
21) Cc1ccc(-n2nc(CO)c(C(=O)NCCCCc3ccccc3)n2)cc1
22) Cc1ccc(Cc2cnc(CN3CCCCC3)c(O)c2)cc1
23) Cc1cccc(CNC(=O)c2ccc3nc(-c4ccccc4)c(-c4ccccc4)nc3c2)c1
24) C=CCn1c(NCc2ccccc2)nc2ccccc21

compound no.	13	14	15	16	17	18	19	20	21	22	23	24
GIV-Gai inh	106	102	107	101	96	.	107	102	102	100	101	.
Sa growth inh	.	115	118	109	.	104	39	101	93	95	105	89
Sa growth inh second temp	.	83	78	92	.	95	39	92	93	84	94	81
HCMV UL50-53 inh	3	-12	.	.	13	-28	.	2	2	-16	-36	-9

25) Fc1ccccc1C1=CN2CCN=C2S1
26) CC12CCC(=O)N1CCCCN2 (stereo not given)
27) CCNC(=O)CCSc1nc2cc(Cl)ccc2o1
28) CCCc1nc2nc(C)c(NS(=O)(=O)c3ccc(F)cc3)c(=O)n2[nH]1
29) COc1cccc(C(=O)Cn2c(=O)n(CCCS(=O)(=O)C3CCCCC3)c(=O)c3ccccc32)c1
30) CCOC(=O)c1c(SC)nc2ccc(Cl)cc2c1N1CCOCC1
31) COC(=O)C(NC(=O)Nc1ccc(C(C)(C)C)cc1)C(C)C (stereo not given)
32) O=C(CCc1nc2ccccc2s1)OC1CCCCC1=O (stereo not given)

compound no.	25	26	27	28	29	30	31	32
GIV-Gai inh	.	101	103	109&97	98	107	107	.
Sa growth inh	88	95	118	113	103	90	102	70
Sa growth inh second temp	84	79	83	94	93	87	97	89
HCMV UL50-53 inh	-15	4	-16	0&-26	.	-6	7	-30

33) CCOC(=O)c1cc2c(=O)n3ccccc3nc2n(CC(C)C)c1=NC(=O)C(C)Oc1ccccc1 (stereo not given)
34) Cc1nc2ccccc2n1CC(=O)OCc1ccc(Br)cc1
35) N#Cc1c(N)sc2c1CCN(c1nc(CN3CCOCC3)nc3scc(-c4cccs4)c13)C2
36) Cc1cc(C)c(OCCCNC(C)(C)C)c(Cl)c1
37) Cc1ccc(-n2ncc3c(N(CCO)Cc4ccccc4)ncnc32)cc1
38) COc1ccc(CCn2c(=S)[nH]c3nccnc3c2=O)cc1OC
39) CCOc1ccc(CC(=O)Nc2c(C(=O)c3ccccc3)oc3ccc(Cl)cc23)cc1OCC
40) Cc1ccc(NC(=O)C2CCCN(c3nnc(C)c4c(C)n(-c5ccccc5)nc34)C2)cc1Cl (stereo not given)

compound no.	33	34	35	36	37	38	39	40
GIV-Gai inh	105	.	.	.	108	106	99	101
Sa growth inh	104	118	125	119	138	90	109	91
Sa growth inh second temp	94	86	86	93	96	99	92	94
HCMV UL50-53 inh	-1	-18	-7	-1	.	-49	-10	.

41) CN(Cc1ccccc1)C(=O)CSc1c2c(nc3ccccc13)CCC2
42) CCOC(=O)c1cc(-c2ccccc2)n(CCCC(=O)Nc2cccc(C)c2)c1C
43) O=C(C1CCCCC1)N1CCN(c2ncccn2)CC1
44) Cc1ccc(-c2cn3nc(N4CCCC(C(=O)Nc5ccc(F)cc5)C4)sc3n2)cc1 (stereo not given)
45) CC1CCCCN1S(=O)(=O)Cc1ccccc1 (stereo not given)
46) Cc1nc2ccc(S(=O)(=O)N(C)CC(=O)Nc3cccc(C(F)(F)F)c3)cc2s1
47) Cc1oc(-c2ccccc2F)nc1CS(=O)(=O)CC(=O)N1CCN(c2ccccc2)CC1
48) CC(O)(C#Cc1ccccc1)c1ccc(N2CCCCC2)c(F)c1 (stereo not given)

compound no.	41	42	43	44	45	46	47	48
GIV-Gai inh	109	110	101	102	.	103	101	.
Sa growth inh	104	100	102	102	85	100	95	67
Sa growth inh second temp	85	101	85	89	107	83	90	73
HCMV UL50-53 inh	.	.	21	.	18	-36	-23	-3

49) CSCCC1NC(=O)NC1=O (stereo not given)
50) CC(=O)OCCSc1nc(N(C)C)nc(N(C)C)n1
51) Cc1ccc2cnn(CC(=O)NCCCN3CCCC3=O)c2c1
52) O=C1c2ccccc2NC(c2ccc(Br)cc2)N1c1ccc(Cl)cc1 (stereo not given)
53) CSCCNC(C)=O
54) Cc1nc(-c2ccccn2)nc(SCC(=O)c2ccccc2)c1Cl
55) CCc1nc(NC2CCCCC2)c2onc(-c3ccc(C)cc3)c2n1
56) Cn1c(=O)c2c(ncn2CC(=O)Nc2ccc(F)c([N+](=O)[O-])c2)n(C)c1=O

compound no.	49	50	51	52	53	54	55	56
GIV-Gai inh	97	98	107	103	102	103	105	99
Sa growth inh	101	97	99	.	109	106	.	.
Sa growth inh second temp	90	106	95	.	105	79	.	.
HCMV UL50-53 inh	-22	-8	8	5	1	-16	-20	0

57) CCn1cc(C(=O)N2CCN(c3ccc(C)cc3)C(C)C2)c(=O)c2cc(S(=O)(=O)N3CCCC3)ccc21 (stereo not given)
58) O=c1oc2ccccc2cc1-c1cn2c(n1)sc1ccccc12
59) CC(C)CCNC(=O)c1cn(-c2ccccc2)nc1-c1cccs1
60) CC1CCCCN1CC(=O)Nc1cc(C(C)(C)C)nn1-c1ccccc1 (stereo not given)
61) CCN(CC)CCN(C)C1C2CC3CC(C2)CC1C3 (stereo not given)
62) O=C1CC(NC(=O)N2CCCc3ccccc32)CN1c1ccccc1 (stereo not given)
63) CCN(CC)C(=S)Oc1c(Cl)cccc1Cl
64) CC(=O)c1ccc(NC(=O)CSc2nc3ccc([N+](=O)[O-])cc3[nH]2)cc1

compound no.	57	58	59	60	61	62	63	64
GIV-Gai inh	100	103	.	.	102	104	97	102
Sa growth inh	100	90	78	101	111	103	94	.
Sa growth inh second temp	94	97	86	97	111	88	95	.
HCMV UL50-53 inh	-23	.	-22	-18	-19	-24	-6	-23

65) N#CC1=C2CCCCC2C(c2ccco2)C(C#N)(C#N)C1=O (stereo not given)
66) O=C(O)c1nc(-c2ccccc2)n(-c2cccc(C(F)(F)F)c2)n1
67) NC(=O)Cc1cc(=O)oc2cc(O)ccc12
68) CCCCn1c(SCC(=O)N(CC)c2cccc(C)c2)nc2ccsc2c1=O
69) COCc1nnc(C(=O)Nc2ccc(C(=O)N3CCN(c4ccccn4)CC3)cc2)s1
70) CCOc1ccc(NC(=O)CN2C(=O)CCSc3ccc(S(=O)(=O)N4CCCC4)cc32)cc1
71) N=C(N)SCc1nc(-c2ccc(Cl)cc2)no1
72) CC1=C(c2ccc(C)cc2)S(=O)(=O)NC1=NCc1ccccn1

compound no.	65	66	67	68	69	70	71	72
GIV-Gai inh	.	.	102	99	109	98	103	105
Sa growth inh	63	93	95	99	.	99	46	102
Sa growth inh second temp	84	91	97	85	.	92	39	92
HCMV UL50-53 inh	-36	-10	-34	2	-6	.	-12	.

73) CC(C)(C)NC(=O)CCCN1C(=O)c2ccccc2C1=O
74) O=C(OCC(=O)N1CCCCC1)c1ccccc1OCCOc1ccccc1
75) O=C1c2ccc(-c3nc4ccccc4c(=O)o3)cc2C(=O)N1Cc1ccc(Cl)cc1
76) CC1CCn2c(nc3cc(C(=O)NCc4ccccc4)ccc32)C1 (stereo not given)
77) C=CCn1c(CC(=O)Nc2ccccc2Cl)nnc1SCC(=O)Nc1nccs1
78) COc1ccccc1NC(=O)C(Cc1ccccc1)NS(=O)(=O)c1cccc2nsnc12 (stereo not given)
79) CCOc1ccc(C(=O)N2C(C)CCCC2C)cc1OCC (stereo not given)
80) Cc1[nH]c(C(=O)N2CCN(c3cccc(Cl)c3)CC2)c(C)c1S(=O)(=O)N1CCOCC1

compound no.	73	74	75	76	77	78	79	80
GIV-Gai inh	99	.	96	101	101	106	100	103
Sa growth inh	103	104	110	105	107	105	97	.
Sa growth inh second temp	87	96	87	90	102	89	100	.
HCMV UL50-53 inh	-34	28	.	.	-1	-85	3	-25

81) CCOc1ccccc1NC(=O)Cn1nnc2sc3c(c2c1=O)CCC(C(C)(C)C)C3 (stereo not given)
82) COc1cc(Br)cc(C2OC(c3cc(C4CC4)nc4ccccc34)=NN2C(C)=O)c1OC(C)=O (stereo not given)
83) Cc1cccc(NC(=O)c2noc3c2CCCC3)n1
84) O=C(COC(=O)Cc1coc2ccc3ccccc3c12)Nc1nnc(-c2ccccc2)o1
85) O=C(OCC(=O)N1CCN(C(=O)c2ccco2)CC1)c1ccccc1
86) CCN(c1ccc(Cl)cc1)S(=O)(=O)c1nnc(NC(=O)C2CCCCC2)s1
87) COc1cccc(NC(=O)Cn2c(=O)nc(-c3ccccc3)c3ccccc32)c1
88) CCCCN1COc2c(c3c(C(=O)OCC)c(C)oc3c3ccccc23)C1

compound no.	81	82	83	84	85	86	87	88
GIV-Gai inh	106	102	97	.	.	101	107	98
Sa growth inh	81	.	.	0.1*	97	122	.	67
Sa growth inh second temp	84	.	.	-0.1*	89	86	.	42
HCMV UL50-53 inh	-2	-26	-3	-24	-27	7	-23	-10

Assay outcomes: PubChem, ICCB-Longwood Screening Facility, Harvard Medical School
